# D2 ag: agonists of human D2 dopamine receptor (beta-arrestin). DiscoveRx PathHunter D2 beta-arrestin, luminescence, 90 min; 100% = 57 uM dopamine signal. activation, % (test concentration not listed). 360,000 compounds, 0.084% hits; in the data active = activation above about 40%; inconclusive = about 15% to 40%; inactive = below about 15%; also: compound concentration not given in the record; the text of the record calls up to 30% inactive
#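 Agonist mode: compounds alone added to overnight-plated D2 PathHunter cells for 90 min at 37 C, with 57 uM final dopamine (EC100) defining full response. Beta-arrestin recruitment detected by chemiluminescent reagent, read after 1 h at ambient temperature.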
# PINK1 modulator: modulators of PINK1 expression; PINK1 immunofluorescence, high-content cytometry, 24 h; Potency, µM (series often up to 76.6 µM), for inactives: top-dose activation (PINK1 increase), usual class: activators; 410,000 compounds, 0.2% hits; AID 624263; active = well fitted activation curve with a large enough effect; inconclusive = small, poorly fitted or top-dose-only effect; inactive = flat fitted curve, though single readings scatter; cell line not stated here;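 also: potency is read from the fitted curve at half-maximal effect; % of control where 0% means no effect; nearly all actives have a fitted effect of over 65% in size; a mitochondrial uncoupler was the plate control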
#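 Readout is PINK1 immunofluorescence, quantified alongside mitochondrial, cell and nuclear markers by laser-scanning microplate cytometry. Cells from a stable line were exposed to compound titrations (5 concentrations) for 24 hours, with CCCP controls.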
# TRPV1 potentiator: potentiators of human vanilloid receptor 1 (TRPV1). Q8NER1. TRPV1-expressing cells, Fluo-8 calcium influx, capsaicin EC20 potentiation; host cell line not named in the record; control for the full effect not named in the record. potentiation, % at 8.33 µM. 320,000 compounds, 0.02% hits; active means potentiation above 80%; inconclusive means 30% to 80%; inactive means below 30%; also: 0% is about no effect
#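 Cells expressing TRPV1 were dye-loaded with Fluo-8 and read kinetically: 10 s baseline, 3 min after compound (agonist portion), then 2 min after EC20 capsaicin (allosteric enhancer portion). Calcium-bound dye fluorescence at 480/520 nm.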
# Sfp inh: Sfp phosphopantetheinyl transferase inhibition; Q9F4F7; Biochemical Sfp PPTase activity, qHTS; Potency, µM, without a hit: max response, negative = inhibition, actives largely listed as inhibitors; 310,000 compounds, 3.5% hits; AID 1490; active = well fitted inhibition curve with a large enough effect; inconclusive = small, poorly fitted or top-dose-only effect, or another doubt; inactive = no such curve, though single readings can be large or run the other way;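 also: the enzyme is Sfp with the accession as filed and its product quenches rhodamine fluorescence; potency is read from the fitted curve at half-maximal effect; 0% = enzyme reaction without inhibitor and -100% = no enzyme wells; top concentration of the series not given in the record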
#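 Buffer: 50 mM Hepes-Na pH 7.6, 10 mM MgCl2, 0.01% Nonidet P-40, 0.01% BSA. Enzyme 15 nM, pre-exposed to compound 15 min; substrates then added and fluorescence change tracked over 30 min.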
# CtBP-E1A inh: CtBP/E1A binding inhibition; AID 651724; 340,000 compounds, 0.49% hits; AlphaScreen GST-E1A/His-CtBP binding, 1536-well; stronger effect = lower value; control for the full effect not named in the record; activity change, % (test concentration not listed); in the data active means activity change below about -65%; inconclusive means about -30% to -65%; inactive means above about -30%; also: % is scaled to controls: 0 for no effect and ±100 for the full control effect
#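 AlphaScreen with 125 nM GST-E1A and 125 nM His-CtBP (5X stocks) in Tris pH 8.0, 300 mM NaCl, BSA, Tween 20, TCEP. Compounds preincubated 2 h at 37 deg C, then glutathione donor/nickel acceptor beads added for 1 h at 37 deg C in dark.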
# D2 PAM: positive allosteric modulators of human D2 dopamine receptor; DiscoveRx D2 beta-arrestin cells, luminescence, 90 min; 100% = 57 uM dopamine signal; potentiation, % (concentration not given with the values); 360,000 compounds, 0.23% hits; active = potentiation of 50% or more; inconclusive = 30% to 50%; inactive = 30% or less;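 also: tested on top of an EC20 dose of dopamine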
#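 PathHunter D2 cells, attached overnight at 37 deg C, received compound in DMSO plus dopamine at EC20 (50 nM final) for 90 min at 37 deg C. Beta-arrestin recruitment was read as luminescence after 1 h with detection reagent at ambient temperature.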
# Six1-Eya2 blk: inhibitors of human Six1/Eya2 interaction; activity change, % (test concentration not listed); 360,000 compounds, 0.56% hits; AlphaScreen GST-Six1/His-Eya2 binding, biochemical; stronger effect = lower value; control for the full effect not named in the record; Q15475+O00167; in the data active = activity change below about -65%; inconclusive = about -30% to -65%; inactive = above about -30%; also: % is scaled to controls: 0 for no effect and ±100 for the full control effect
# Target sequence (O00167 whole entry, looked up): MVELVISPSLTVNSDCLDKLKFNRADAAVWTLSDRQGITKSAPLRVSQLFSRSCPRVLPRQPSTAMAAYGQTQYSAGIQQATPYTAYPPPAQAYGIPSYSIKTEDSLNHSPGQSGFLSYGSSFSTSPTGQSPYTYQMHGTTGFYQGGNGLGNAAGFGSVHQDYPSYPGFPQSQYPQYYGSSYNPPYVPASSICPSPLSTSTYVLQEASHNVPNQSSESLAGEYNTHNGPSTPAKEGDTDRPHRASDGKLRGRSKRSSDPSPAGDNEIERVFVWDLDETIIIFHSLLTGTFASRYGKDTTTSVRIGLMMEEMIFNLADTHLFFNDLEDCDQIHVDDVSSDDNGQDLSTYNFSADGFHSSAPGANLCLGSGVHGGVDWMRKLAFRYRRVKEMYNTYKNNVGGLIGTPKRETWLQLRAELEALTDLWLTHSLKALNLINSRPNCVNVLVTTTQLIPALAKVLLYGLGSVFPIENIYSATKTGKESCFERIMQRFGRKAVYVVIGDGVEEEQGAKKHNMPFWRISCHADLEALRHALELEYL
# Target sequence (Q15475 whole entry, looked up): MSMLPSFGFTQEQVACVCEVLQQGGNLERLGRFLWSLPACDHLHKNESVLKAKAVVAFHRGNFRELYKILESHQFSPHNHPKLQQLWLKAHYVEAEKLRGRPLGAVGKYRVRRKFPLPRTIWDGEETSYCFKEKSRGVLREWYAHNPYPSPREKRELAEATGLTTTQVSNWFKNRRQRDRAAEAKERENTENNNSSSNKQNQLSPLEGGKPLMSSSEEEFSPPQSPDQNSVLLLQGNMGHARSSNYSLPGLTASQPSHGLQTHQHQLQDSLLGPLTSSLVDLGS
#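 GST-Six1 + His-Eya2 (5X stock: 250/500 nM); Tris pH 8.0, 300 mM NaCl, 0.05% BSA, 0.02% Tween 20; GSH donor/Ni acceptor beads; 1 h 37 °C dark; AlphaScreen readout.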
# * = called active by the depositor; ? = inconclusive; . = not tested or not shown; [ ] = another dose, or the depositor's remark.
SMILES,D2 ag,PINK1 modulator,TRPV1 potentiator,Sfp inh,CtBP-E1A inh,D2 PAM,Six1-Eya2 blk
Oc1ccc(Br)cc1C=Nc1ccc(Cl)cc1,-4.4,-1.3%,?,6%,9,-3,2
CCc1cc(=O)oc2cc(OCC(=O)N3CCC(C(N)=O)CC3)ccc12,-4.1,-1.3%,4,20%,5,-16,2
C[C@@H]1CN([C@@H](C)CO)C(=O)Cc2cc(NC(=O)Nc3ccc(F)cc3)ccc2O[C@@H]1CN(C)Cc1ccc(Cl)c(Cl)c1,1.1,0.7%,.,.,-4,-7,-15
O=C(CC(=O)c1c(F)cccc1Cl)c1ccccc1O,-4.7,-0.4%,16,9%,-10,-7,?
COc1ccc(NC(=O)CSc2nc(O)cc(=O)[nH]2)c(OC)c1,-3.7,0.6%,8,6%,-1,-5,-5
COc1cc(OC)cc(-c2sc3ccc(OC)cc3c2-c2ccc(OCCN3CCCCC3)cc2)c1,8.9,-1.0%,.,.,-23,.,-27
CCOC(=O)C1CCCN(c2c(NCCc3ccc(Cl)cc3)c(=O)c2=O)C1 (stereo not given),-3.7,-1.4%,-3,32%[activator],.,-10,-3
Cc1ccc(C(=O)NCCNC(=O)Cc2ccccc2)cn1,-3.4,0.9%,1,26%,-1,-1,2
COc1ccccc1NC(=S)NCCC(c1ccccc1)c1ccccc1,-4.4,3.2%,-4,-9%,.,-5,-9
CC(=O)Nc1ccc2nc3ccccc3nc2c1,-0.4,9.1%,10,-17%,?,-3,?
CC1CCN(C(c2cccs2)c2nnnn2Cc2ccccc2)CC1 (stereo not given),-0.8,10%,-9,-7%,2,-2,0
N#CCCCn1c(-c2ccccc2)noc1=O,0.6,1.5%[38.3 µM],-4,14%,7,-2,4
CCOc1ccc(S(=O)(=O)Nc2c(C)n(C)n(-c3ccccc3)c2=O)cc1,0.6,1.0%,-5,-1%,6,-5,-4
CCOC(=O)c1[nH]c2ccc(F)cc2c1NC(=O)CN1CCN(C/C=C/c2ccccc2)CC1,0.2,1.4%,-1,-14%,-22,-14,?
CCN(C(=O)c1cnc2scc(C)n2c1=O)c1ccccc1C,-4.3,0.9%,7,13%,-4,-7,0
Cc1ccc(Cl)cc1N1CCN(S(=O)(=O)c2cnc[nH]2)CC1,1.6,1.3%,-30,-15%,-2,-2,-2
Cc1ccc(S(=O)(=O)N2C[C@H]3[C@H]4C(=O)N(Cc5ccccc5)C(=O)[C@H]4CC(=O)[C@H]3[C@@H]2c2cccc3ccccc23)cc1,-4.0,0.0%,.,.,0,-6,-6
CC(=O)Nc1ccc(S(=O)(=O)NCCNC(=O)c2ccccc2F)cc1,-1.8,0.1%,7,9%,2,5,15
CCCn1c(CC)nc([N+](=O)[O-])c1S(=O)(=O)c1ccccc1,-0.2,2.6%[38.3 µM],21,8%,4,-1,3
CCc1cccc(C)c1NC(=S)NCCc1c(C)[nH]c2ccc(C)cc12,2.3,?,3,14%,-21,-4,?
CCCCNC(=O)CO/N=C(\C)c1cc2ccccc2o1,-3.5,4.4%,-1,-12%,-10,-28,5
Cn1c(=O)[nH]c(=O)c2c1nc(SCCO)n2CC(O)COc1ccccc1 (stereo not given),-6.8,-1.1%,-7,5µM*,11,-4,-1
N/C(CCS(=O)(=O)c1ccc(Cl)cc1)=N\OC(=O)c1ccccc1C(F)(F)F,?,0.4%,-7,22%,3,26,0
CC1CC(C)CN(C(=O)c2ccc3c(=O)n(Cc4ccc5c(c4)OCO5)c(=S)[nH]c3c2)C1 (stereo not given),-1.8,-1.3%[38.3 µM],3,32%,-2,-8,-1
Cc1cc(OCC(=O)Nc2ccccc2C)no1,-2.6,9.7%,-31,.,-1,1,10
O=C(NC1CCCC1)c1cccc2c1C(=O)c1ccc(Cl)cc1S2(=O)=O,-4.1,0.3%,6,.,2,-9,0
CCCC(=O)NC(c1ccc2c(c1)OCO2)c1cc(Cl)c2cccnc2c1O (stereo not given),-4.7,4.3%,2,-2%,-78*,-34,-77*
CC1(C)CC(=O)C(CSC(=O)c2ccccc2)C(=O)C1,-7.1,4.9%,.,.,-8,-19,-4
Cc1cc(Cn2nc(C(=O)NCc3cccc(C(F)(F)F)c3)cc2-c2ccccc2)on1,-0.3,-0.4%,-16,.,-2,-75,3
N#CC1=C(C=Nc2ccccc2O)CCC1,-1.8,-1.5%,-8,1%,-1,5,7
O=C(CSc1ncn[nH]1)Nc1ccc2c(c1)CCC2,-2.5,5.6%,-11,21%,-1,2,7
CCc1nc2ccc(C(=O)N3CCN(S(=O)(=O)CC)CC3)cn2c1N(C)Cc1cccs1,-5.7,0.9%,.,.,0,6,7
CC(=O)c1c(C)[nH]c(C(=O)OCC(=O)N2CCCC2=O)c1C,-7.4,-0.3%,1,.,-4,-17,-2
Cc1ccc(C(C)C)c(O)c1C(=O)O,-5.8,-0.5%,.,.,-24,-3,2
Cc1ccc(CNC(=S)Nc2ccc(NS(=O)(=O)c3ccc(C)cc3)cc2)cc1,1.4,10%,3,6%,-15,-19,-11
CCOC(=O)c1c(S(=O)(=O)Nc2cccc(Cl)c2)c(C)n(C)c1C,6.1,1.4%,-2,17%,-1,-8,-4

# 12 entries out of the list, ordered by SMILES length, descending.
SMILES,D2 ag,PINK1 modulator,TRPV1 potentiator,Sfp inh,CtBP-E1A inh,D2 PAM,Six1-Eya2 blk
CC1CC(C)CN(C(=O)c2ccc3c(=O)n(Cc4ccc5c(c4)OCO5)c(=S)[nH]c3c2)C1 (stereo not given),-1.8,-1.3%[38.3 µM],3,32%,-2,-8,-1
CCc1nc2ccc(C(=O)N3CCN(S(=O)(=O)CC)CC3)cn2c1N(C)Cc1cccs1,-5.7,0.9%,.,.,0,6,7
Cc1cc(Cn2nc(C(=O)NCc3cccc(C(F)(F)F)c3)cc2-c2ccccc2)on1,-0.3,-0.4%,-16,.,-2,-75,3
N/C(CCS(=O)(=O)c1ccc(Cl)cc1)=N\OC(=O)c1ccccc1C(F)(F)F,?,0.4%,-7,22%,3,26,0
Cc1ccc(CNC(=S)Nc2ccc(NS(=O)(=O)c3ccc(C)cc3)cc2)cc1,1.4,10%,3,6%,-15,-19,-11
O=C(NC1CCCC1)c1cccc2c1C(=O)c1ccc(Cl)cc1S2(=O)=O,-4.1,0.3%,6,.,2,-9,0
Cn1c(=O)[nH]c(=O)c2c1nc(SCCO)n2CC(O)COc1ccccc1 (stereo not given),-6.8,-1.1%,-7,5µM*,11,-4,-1
CC(=O)c1c(C)[nH]c(C(=O)OCC(=O)N2CCCC2=O)c1C,-7.4,-0.3%,1,.,-4,-17,-2
CC1(C)CC(=O)C(CSC(=O)c2ccccc2)C(=O)C1,-7.1,4.9%,.,.,-8,-19,-4
O=C(CSc1ncn[nH]1)Nc1ccc2c(c1)CCC2,-2.5,5.6%,-11,21%,-1,2,7
Cc1cc(OCC(=O)Nc2ccccc2C)no1,-2.6,9.7%,-31,.,-1,1,10
N#CC1=C(C=Nc2ccccc2O)CCC1,-1.8,-1.5%,-8,1%,-1,5,7

# Other entries:
SMILES,D2 ag,PINK1 modulator,TRPV1 potentiator,Sfp inh,CtBP-E1A inh,D2 PAM,Six1-Eya2 blk
CCC(Sc1nc(=O)cc(N)n1-c1cccc(C)c1)C(=O)Nc1cc(C)on1 (stereo not given),-1.3,.,-2,13%,-17,3,-10
O=C(NCC1CCCO1)c1ccc(Oc2ccc([N+](=O)[O-])cc2Cl)cc1 (stereo not given),-5.1,-0.6%,-7,-6%,.,-9,16
COc1ccccc1C(=O)NCC(=O)N/N=C/c1ccc2c(c1)OCO2,3.4,18%,4,-1%,1,-1,-6
COC(=O)c1cnc(NC(=O)C2(C)CCN2C(=O)C(C)C)s1 (stereo not given),-3.0,1.4%,.,.,0,2,36
COc1cc(C#N)ccc1OC(=O)c1cccc(S(=O)(=O)N2CCN(C)CC2)c1,-3.6,-1.4%,-2,.,-27,-26,?
CCOC(=O)C1(C)CCN1C(=O)c1ccccc1 (stereo not given),-4.4,2.5%,.,.,25,-6,6
O=C(O)Cc1ccc(NC(=O)Nc2ccc(Br)cc2)cc1,-3.6,2.0%,-14,40µM*,5,6,3
COc1cc2cc[n+](Cc3ccc([N+](=O)[O-])cc3)cc2cc1OC,-2.9,-1.4%,10,0%,-10,-8,12
CC1CC(C)CN(CCCNC(=O)CN2C(=O)CSc3ccc(S(=O)(=O)N4CCOCC4)cc32)C1 (stereo not given),1.8,-1.5%,7,10%,-2,-24,3
O=C(OCC(=O)N1CCCC1)c1ccc(OC(F)(F)F)cc1,-4.2,1.4%,-2,2%,-4,-2,-3
COc1ccc(-c2noc3c2-c2nc(-c4ccc(Cl)cc4)sc2CC3)cc1,-2.6,1.8%,-5,-21%,5,-6,7
CC1(C2CC2)NC(=O)N(CC(=O)Nc2ccc(OC(F)F)cc2)C1=O (stereo not given),-0.1,1.2%,.,.,2,2,0
CCOc1cc(/C=C(\C#N)C(=O)Nc2cccc(C(=O)O)c2)ccc1OCc1ccccc1Cl,4.5,6.7%,-1,?,?,-3,8
CO/N=C/NC(=O)c1c(OC)ccnc1Oc1ccccc1,0.0,?,2,11%,-2,3,-6

# Rows are unselected. About 3.7% of those tested had a hit in this group.
